KAT2A inh: inhibitors of human GCN5L2 histone acetyltransferase; AID 504327; Potency, µM (titrated, usually from 58.9 µM), inactives show top-dose activity change, negative = inhibition, most hits filed as inhibitors; 0.21% of 390,000 active; GCN5L2 HAT assay, ThioGlo1 CoA-SH fluorescence; active = well fitted inhibition curve with a large enough effect; inconclusive = small, poorly fitted or top-dose-only effect, or another doubt; inactive = no such curve, though single readings can be large or run the other way
Target sequence (Q92830 whole entry, looked up): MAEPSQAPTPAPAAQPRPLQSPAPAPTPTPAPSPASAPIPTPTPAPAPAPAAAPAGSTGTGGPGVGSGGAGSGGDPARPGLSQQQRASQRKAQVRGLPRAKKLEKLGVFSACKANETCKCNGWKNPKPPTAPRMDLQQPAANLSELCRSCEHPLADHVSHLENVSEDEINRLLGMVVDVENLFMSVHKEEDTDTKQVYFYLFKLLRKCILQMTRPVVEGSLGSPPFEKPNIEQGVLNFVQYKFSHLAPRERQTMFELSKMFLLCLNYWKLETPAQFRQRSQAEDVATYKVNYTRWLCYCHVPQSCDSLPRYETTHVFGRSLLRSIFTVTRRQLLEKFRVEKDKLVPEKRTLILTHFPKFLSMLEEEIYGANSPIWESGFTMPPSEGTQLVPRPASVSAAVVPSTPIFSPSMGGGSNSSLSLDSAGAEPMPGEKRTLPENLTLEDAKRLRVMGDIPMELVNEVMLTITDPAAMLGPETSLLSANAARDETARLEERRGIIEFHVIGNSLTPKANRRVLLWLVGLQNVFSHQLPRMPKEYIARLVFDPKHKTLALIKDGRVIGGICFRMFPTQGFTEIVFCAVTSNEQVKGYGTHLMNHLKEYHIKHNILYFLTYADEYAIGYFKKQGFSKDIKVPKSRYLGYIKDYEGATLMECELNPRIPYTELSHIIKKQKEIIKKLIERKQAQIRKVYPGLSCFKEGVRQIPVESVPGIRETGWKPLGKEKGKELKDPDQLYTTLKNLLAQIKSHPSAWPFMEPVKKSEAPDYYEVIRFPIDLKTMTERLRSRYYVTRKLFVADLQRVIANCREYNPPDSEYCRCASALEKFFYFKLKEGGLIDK
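GCN5L2 (20nM final) in 50mM HEPES, 0.1mM EDTA pH 7.5, 0.01% Tween-20 was preincubated 15 min at room temperature with compound, then given ThioGlo1 (50uM), H3(1-25) peptide (75uM) and acetyl-CoA (70uM); CoA-thiol fluorescence (Ex340/Em540) was read at 0 and 20 min.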
An asterisk follows results filed as active; ? = inconclusive; & = joins results of further samples. % is set by controls: 0 for no effect and ±100 for the full control effect; potency is the fitted concentration of half-maximal effect. An excerpt; most or all hits stand in other tables.

SMILES	KAT2A inh
COc1ccc2c(=O)c(C(=O)NCCc3ccc(OC)c(OC)c3)c[nH]c2c1	1%
CNC(=O)c1nnn(Cc2ccccc2)c1NC(=O)C(F)(F)F	-5%
CCOC(=O)c1c(C)[nH]c(C(=O)COC(=O)CNC(=O)c2ccc(Cl)cc2Cl)c1C	-4%
CC(=O)Nc1cccc(CP(=O)(c2ccccc2)c2ccccc2)c1	-3%
O=C(COC(=O)c1ccc(Br)o1)NCc1ccccc1Cl	0%
NS(=O)(=O)c1cc(Cl)c(Cl)c(S(N)(=O)=O)c1	4%
COc1ccccc1CC(=O)N(Cc1ccccc1)c1ccc(C)cc1	-6%
COc1ccc(/C=C/C(=O)Nc2nc(-c3cccs3)ns2)cc1OC	-8%
O=C(Nc1cccnc1)c1c(F)c(F)c(F)c(F)c1F	1%
C=CC(=O)NC(C)(C)CCN1CCOCC1	-2%
CC(C)(C)c1ccc(NC(=O)CSc2nnc(-c3n[nH]c4ccccc34)o2)cc1	-13%
COc1ccc(S(=O)(=O)N2CCOCC2)cc1Cl	-1%
O[C@@H](c1cc(C(F)(F)F)nc2c(C(F)(F)F)cccc12)[C@H]1CCCCN1	-13%&31%
CC(C)c1ccccc1NC(=O)COC(=O)c1ccc(Cl)c(S(=O)(=O)N2CCCCCC2)c1	-11%
O=C1C2C3C=CC(C2C(=O)N1c1ccc(O)cc1)C1C2C(=O)N(c4ccc(O)cc4)C(=O)C2C31 (centres undefined)	6%
O=C(CCNS(=O)(=O)c1cccs1)N1CCN(c2cccc(C(F)(F)F)c2)CC1	-2%
O=C(NCCN1C(=O)CCC1=O)c1ccncc1	0%
COc1cc(S(=O)(=O)N(Cc2ccccc2)CC2CCCO2)ccc1-n1cnnn1 (centres undefined)	0%
COc1ccc(CC(=O)Nc2ccc(-c3noc(COc4ccccc4C)n3)cc2)cc1	0%
CN(CC(=O)Nc1ccccc1Cl)C(=O)CSc1nc2ccccc2s1	0%
O=C(Nc1cccnc1)c1coc(=O)c2ccccc12	-10%
CCC(=O)N(CCc1ccccc1)Cc1cc2cc3c(cc2[nH]c1=O)OCO3	14%
Cc1cccc(Nc2nnc(C)c(=O)n2N)c1	-13%
COc1cc2cc(CCOC(=O)c3ccc(C(F)(F)F)cc3)oc(=O)c2cc1OC	6%
CCOc1ccc(C(=O)c2cc([N+](=O)[O-])ccc2Cl)cc1	1%

The list goes on (two carried over from the part before).
SMILES	KAT2A inh
COc1cc2cc(CCOC(=O)c3ccc(C(F)(F)F)cc3)oc(=O)c2cc1OC	6%
CCOc1ccc(C(=O)c2cc([N+](=O)[O-])ccc2Cl)cc1	1%
COc1ccc(NC(=S)N(Cc2ccc(C)cc2)Cc2ccccn2)cc1	-2%
CCN(C(=O)CSc1nnc(C)n2c1cc1occc12)c1ccccc1	-10%
CCN1CCN(c2cc(C)c3cc(NC(=O)/C=C/c4ccc(C)cc4)ccc3n2)CC1	-8%
Cc1nn(CC(=O)N2CCCC2)c(=O)c2nn(-c3ccccc3)c(C)c12	-4%
O=C(CSC1=NCCS1)Nc1ccc(F)cc1	2%
CN1CCN(c2ccc(NC(=O)c3ccc(Oc4ccccc4)cc3)cc2)CC1	-3%
CCOC(=O)N1CCN(c2nc(-c3ccc(OC)cc3)no2)CC1	-10%
Cc1cccc(-c2nc3c(c(SCc4ccccc4Cl)n2)Cc2c(CO)cnc(C)c2O3)c1	-1%
CCOC(=O)c1ccc(NC(=O)N2CCc3ccccc3C2)cc1	-4%
CCN(CC(=O)NCCCN1CCOCC1)S(=O)(=O)c1cc(Cl)ccc1Cl	1%
Cc1ccc(S(=O)(=O)N(C)C)cc1NC(=O)CSc1nc2ccccc2[nH]1	-4%
O=C1CCCN1c1cc(Cl)ccc1Cl	-5%
O=C(NNC(=S)NC(=O)c1ccccc1)c1cccnc1	-11%
CO[C@@]1(NC(=O)CSCC#N)C(=O)N2C(C(=O)O)=C(CSc3nnnn3C)CS[C@@H]21	8%&-3%
COC(=O)NC1CSCC1OC(=O)CCN1C(=O)c2ccccc2C1=O (centres undefined)	?
Cc1oc(-c2cccc(Cl)c2)nc1CN1CCCC(C(=O)NCCCN2CCOCC2)C1 (centres undefined)	-30%
O=C1CC(N2CCSCC2)C(=O)N1CCc1ccccc1 (centres undefined)	-15%
COc1ccccc1CN(C)C(=O)CN1CCN(S(=O)(=O)c2ccc3c(c2)OCCCO3)CC1	-8%
O=C(Cc1n[nH]c(=O)c2ccccc12)Nc1cc(C(F)(F)F)ccc1-n1cncn1	1%
O=C(O)CCC(=O)N1CCN(c2ccccn2)CC1	7%
CC(NC(=O)COC(=O)c1ccc(Br)o1)c1ccccc1 (centres undefined)	1%
CCOc1ccc(NC(=O)COC(=O)c2cc(C)oc2C)cc1	-5%
Cc1cc(C)cc(NC(=O)CN2C(=O)NC(C)(c3ccccc3)C2=O)c1 (centres undefined)	-9%
c1ccc2oc(Cc3ccc(Cc4nc5ccccc5o4)cc3)nc2c1	0%
COc1ccc(C(CNS(=O)(=O)c2ccc(C)cc2)N2CCN(C)CC2)cc1 (centres undefined)	0%

The listing continues:
SMILES	KAT2A inh
CCn1c(SCc2nc3cc(OC)c(OC)cc3c(=O)[nH]2)nnc1-c1ccncc1	2%
O=C(CN1CCOCC1)Nc1ccc(Br)cn1	-2%
CC(C)NC(=O)CSc1nc(N)c(NC(=O)c2ccco2)c(=O)[nH]1	-2%
CCCCNS(=O)(=O)/C=C/c1ccccc1	1%
O=C(CCN1CCCCCC1)Nc1ccc(F)cc1	-4%
COc1ccc(CCC(=O)OCC(=O)Nc2ccccc2OC(F)F)cc1OC	-4%
CCCCOC(=O)c1ccc(NC(=O)c2ccc3c(c2)CCCN3S(C)(=O)=O)cc1	-2%
Cc1cccc(NC(=O)c2cc([N+](=O)[O-])ccc2N2CCN(C)CC2)c1	-4%
Cc1cc(NC(=O)c2cc(S(=O)(=O)N3CCCCC3)ccc2C)n(-c2ccccn2)n1	0%
O=C(CN(C1CCCCC1)S(=O)(=O)c1ccc(Cl)cc1)NCc1ccncc1	-3%
CCOc1ccc(C2CC(c3ccc(CC)cc3)Nc3nc(N)nn32)cc1 (centres undefined)	-2%
Cc1ccc(S(=O)(=O)NCCC(=O)Oc2ccc3ccc(=O)oc3c2)cc1	-6%
CN1CCn2c1nc(N1CCCCC1)nc2=O	-3%
COc1ccc(C(=O)N/N=C\c2ccoc2)cc1	-8%
CCN1C(=O)c2ccccc2S(=O)(=O)c2ccc(C(=O)NCc3ccccc3)cc21	-7%
Cc1cc(NC(=O)C(C)SCC(=O)OCc2ccc(Cl)cc2Cl)no1 (centres undefined)	-1%
Cc1ccc(C2(C)NC(=O)N(CC(=O)NC(=O)NCCC(C)C)C2=O)cc1 (centres undefined)	-6%
Cn1c(SCc2c(Cl)cccc2Cl)nnc1-c1ccc2nonc2c1	-13%
CCOc1ccccc1C(=O)N(Cc1ccco1)Cc1ccco1	-5%
CCCN1C(=O)c2ccc(C(=O)Nc3cc(C)on3)cc2C1=O	2%
Cn1c(CCC(=O)Nc2ccc(N3CCOCC3)cc2)nc(=O)c2ccccc21	1%
CCc1ccc(NC(=O)CCC(=O)Nc2nnc(C(C)C)s2)cc1	-7%
CCc1cccc(C)c1NC(=O)c1cc(-c2ccncc2)nc2ccccc12	-1%
CCN(CC)c1ccc(NC(=O)CSc2nnc(C)c(=O)[nH]2)cc1	-9%
CCn1cc(/C=C(\NC(=O)c2ccccc2F)C(=O)NCCCn2ccnc2)c2ccccc21	-6%

Rewritten with values ahead of the structure: entries from further up
KAT2A inh | compound
-2% | COc1ccc(NC(=S)N(Cc2ccc(C)cc2)Cc2ccccn2)cc1
-11% | O=C(NNC(=S)NC(=O)c1ccccc1)c1cccnc1
6% | COc1cc2cc(CCOC(=O)c3ccc(C(F)(F)F)cc3)oc(=O)c2cc1OC
-6% | Cc1ccc(S(=O)(=O)NCCC(=O)Oc2ccc3ccc(=O)oc3c2)cc1
7% | O=C(O)CCC(=O)N1CCN(c2ccccn2)CC1

A second format for 2 compounds above:
COc1ccccc1CN(C)C(=O)CN1CCN(S(=O)(=O)c2ccc3c(c2)OCCCO3)CC1
  KAT2A inh: -8%
O=C(Cc1n[nH]c(=O)c2ccccc12)Nc1cc(C(F)(F)F)ccc1-n1cncn1
  KAT2A inh: 1%

(continued)
SMILES	KAT2A inh
O=C(N/C(=C\c1cccc([N+](=O)[O-])c1)C(=O)N1CCOCC1)c1cccc(Br)c1	-6%
CCCCCOC(=O)Nc1ccc(S(=O)(=O)Nn2cnnc2)cc1	-1%
CC1O[C@@H]2O[C@](O[C@H](C)CC[C@@H](C)O)(c3ccccc3)O[C@@H]2C[C@H]1O (some centres undefined)	0%
Cc1ccc2c(=O)cc(C(=O)Nc3ccc(S(=O)(=O)Nc4onc(C)c4C)cc3)oc2c1	-17%&-13%
NS(=O)(=O)c1ccc(CCNC(=O)C2CCN(S(=O)(=O)c3c(Cl)cccc3Cl)CC2)cc1	-27%
Cc1ccccc1C(O)c1cccnc1 (centres undefined)	1%
Cc1ccc(C(=O)CN2C(=O)NC3(CCc4ccccc43)C2=O)c(C)c1 (centres undefined)	-17%
COc1ccc(C(=O)N/C(=C/c2cccs2)C(=O)NCCCn2ccnc2)cc1OC	-13%
Cc1cc(C)c[n+](C(C)C(=O)c2ccc(-c3ccccc3)cc2)c1 (centres undefined)	22%
COc1ccc2c(c1)c1c(c(=O)n(CCc3ccccc3)c(=O)n1Cc1cccc(Cl)c1)n2C	?
Cc1ccc(C2=N/C(=C\c3ccc(F)cc3)C(=O)N2)cc1	-1%
CCOC(=O)c1cccc(NC(=O)c2ccc(-n3cnnn3)cc2)c1	2%
CCN(Cc1ccccc1)C(=O)C1CCN(c2ncnc3c2nc2n3CCCCC2)CC1	-2%&-6%
COc1ccc2[nH]c(C)c(CCNC(=S)Nc3cccc(C)c3)c2c1	-8%
c1ccc2oc(-c3ccc4nc[nH]c4c3)nc2c1	-7%
COc1ccc(C(C(=O)NC2CCCCC2)N(C(=O)c2snc(C(N)=O)c2N)c2ccc(OC)cc2OC)cc1 (centres undefined)	-11%
Cn1c2ccccc2c2cnn(CC(=O)Nc3ccc(F)cc3F)c(=O)c21	-8%
COc1ccc(CNC(=O)CCc2nc3cc(S(=O)(=O)N(C)C)ccc3n2C)cc1OC	-5%
COc1cccc(NC(=O)Nc2ccccc2Br)c1	-1%
COc1ccc(NC(=O)c2nnn(CC(=O)Nc3ccc(C)c(C)c3)c2N)cc1OC	-1%
Cc1ccc(NC(=O)NCCCN2CCCC2=O)c(C)c1	?
CCN(CC(=O)Nc1c(F)cccc1F)C(=O)c1cccc(S(=O)(=O)NCc2ccccc2)c1	3%
COc1ccc(/C=C2/C(=O)OCc3cc(OC)c(OC)cc32)cc1	-4%
CC(=O)COc1ccc2c3c(c(=O)oc2c1)CCCC3	1%
O[C@H]1[C@H]2c3cc4c(cc3CN3CCC(=C[C@@H]1O)[C@H]23)OCO4	19%

Further results follow.
SMILES	KAT2A inh
Cn1c(N)c(C(=O)CN2CCc3ccccc3C2)c(=O)n(C)c1=O	-10%
COc1cccc2c(=O)n(CC(=O)N3CCCc4ccccc43)ccc12	0%
CN(C)c1nc(Nn2cnnc2)nc(N(C)C)n1	3%
O=C(N/N=C/c1ccncc1)c1cccc(S(=O)(=O)N2CCCC2)c1	-1%
CC1CCCCC12NC(=O)N(CC(=O)NC(=O)Nc1ccc3c(c1)OCCO3)C2=O (centres undefined)	-7%
Cc1nc([N+](=O)[O-])c(NCCO)n1Cc1ccccc1	-9%
Cc1csc(NC(=O)C2C3C=CC(C3)C2C(=O)O)n1 (centres undefined)	3%
O=C(NCCCn1ccnc1)/C(=C\c1cccs1)NC(=O)c1cccs1	-1%
CC1CCCN(C(=O)C2COc3ccccc3O2)C1 (centres undefined)	0%
COc1ccc(OCC(=O)N2CCN(c3cccc(C(F)(F)F)c3)CC2)cc1	-8%
C[N+](C)(C)CCNC(=O)c1cc[n+](Cc2ccccc2)c(/C=N/O)c1	-11%
COCC(=O)N1CCC(Oc2ccc(C(=O)N(C)C(C)c3ccon3)cc2)CC1 (centres undefined)	-2%
COc1cc(NC(=O)C2CCCN(S(=O)(=O)c3cn(C)cn3)C2)cc(OC)c1 (centres undefined)	9%
CS(=O)(=O)N(CC(=O)Nc1ccccc1-c1ccccc1)c1ccccc1	-4%
COc1cc(-c2nc3ncccn3c2Nc2ccc(C)cc2C)ccc1O	-9%
C=C(C)C(=O)Nc1cccc(C2=NOC3(C2)C[C@H](C(N)=O)N(C(=O)C(c2ccccc2)c2ccccc2)C3)c1 (some centres undefined)	-7%
Cc1cccc(OC(=O)CSc2nnc(-c3ccc4c(c3)OCO4)o2)c1C	-2%
O=C(COC(=O)CN1C(=O)COc2ccccc21)NC1CCCCC1	-7%
S=C(NN=C1C2CC3CC(C2)CC1C3)Nc1ccccc1	-7%
Cc1ccc2nc(-c3ccccc3)cc(C(=O)N3CC(C)OC(C)C3)c2c1 (centres undefined)	-7%
COc1ccc(C(C)=O)cc1COC(=O)c1ccc(N)c([N+](=O)[O-])c1	-28%
CC(C)CN1CCC(=O)N([C@H](CSc2ccc(Br)cc2)c2ccccc2)CC1	3%
O=c1cc(C(F)(F)F)nc(-n2[nH]c3c(c2=O)CCCC3)[nH]1	-4%
NC(=O)c1ccccc1NS(=O)(=O)c1cccs1	3%

Among those listed so far, these have a COOH group:
SMILES	KAT2A inh
CO[C@@]1(NC(=O)CSCC#N)C(=O)N2C(C(=O)O)=C(CSc3nnnn3C)CS[C@@H]21	8%&-3%
O=C(O)CCC(=O)N1CCN(c2ccccn2)CC1	7%
Cc1csc(NC(=O)C2C3C=CC(C3)C2C(=O)O)n1 (centres undefined)	3%

Screens (PubChem)
